Assay outcomes from PubChem.
StopGo reporter – lowers the luciferase signal of an FMDV 2A StopGo reporter | Potency, µM (titrated, usually from 57.9 µM), without a hit: at the top dose signal change, negative = less light | AID 1159524 | hit rate 1.2% among 410,000 | human cells with a luciferase reporter of 2A StopGo recoding; control for the full effect not named in the record; active = well fitted falling curve with a large enough effect; inconclusive = small, poorly fitted or top-dose-only effect; inactive = no such curve, though single readings can be large or run the other way; tested in HEK293T cells; note: % is set by controls: 0 for no effect and ±100 for the full control effect; nearly all actives have a fitted effect of over 45% in size; luciferase light after 4 h
RE007 growth inh – less growth of the S. pombe RE007 Vpr strain; S. pombe RE007 Vpr strain, BacTiter-Glo ATP luminescence, 24 h; control for the full effect not named in the record; Potency, µM (series often up to 92.2 µM), without a hit: at the top dose activity change, negative = less growth; hit rate 0.21% among 360,000; active = well fitted falling curve with a large enough effect; inconclusive = small, poorly fitted or top-dose-only effect; inactive = no such curve, though single readings can be large or run the other way;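 note: % is set by controls: 0 for no effect and ±100 for the full control effect; nearly all actives have a fitted effect of over 50% in size; the assay follows cell death caused by Vpr and the record does not say whether a fall means rescue or toxicity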
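Fission yeast strain RE007, carrying one chromosomally integrated HIV-1 vpr copy, was seeded at OD 0.01 in PMG+AL medium with 23 nL pinned compound. After 24 h at 30 °C and 99% humidity, viability was read by BacTiter-Glo luminescence.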
Marburg entry inh – Marburg virus entry inhibition. AID 540276. hit rate 1.8% among 300,000. Potency, µM (titrated, usually from 37.8 µM), inactives show at the highest dose activity change, negative = inhibition, hits mostly inhibitors. Marburg virus pseudotyped entry inhibition, cell reporter; control for the full effect not named in the record; about a third of the inactives were read at about 46 µM; active = well fitted inhibition curve with a large enough effect; inconclusive = small, poorly fitted or top-dose-only effect, or effect the other way; inactive = flat fitted curve, though single readings scatter; tested in HEK293 cells; about a fifth of its hits are not listed in these tables; note: % is set by controls: 0 for no effect and ±100 for the full control effect; luciferase read-out
SARS PLP yeast – blocks SARS-CoV papain-like protease in a yeast assay. S. cerevisiae expressing SARS-CoV PLpro, growth rescue; control for the full effect not named in the record. Potency, µM (series often up to 32.9 µM), for inactives: at the top dose activity, positive = growth rescue. hit rate 0.19% among 330,000; active means well fitted rising curve with a large enough effect; inconclusive means small, poorly fitted or top-dose-only effect; inactive means no such curve, though single readings can be large or run the other way; note: 0% is about no effect; nearly all actives have a fitted effect of over 55% in size; growth read by luminescence after 48 h
Cruzain Triton – cruzain (T. cruzi) inhibition with detergent; P25779; purified cruzain, Z-FR-AMC fluorescence, 0.01% Triton; Potency, µM, for inactives: max response, negative = inhibition, usual class: inhibitors; hit rate 0.43% among 200,000; AID 1478;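 note: plate controls were neutral wells for no effect and buffer without enzyme for full effect; nearly all actives have a fitted effect of over 40% in size; top concentration of the series not given in the record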
Target sequence (P25779 123-467 limits assumed): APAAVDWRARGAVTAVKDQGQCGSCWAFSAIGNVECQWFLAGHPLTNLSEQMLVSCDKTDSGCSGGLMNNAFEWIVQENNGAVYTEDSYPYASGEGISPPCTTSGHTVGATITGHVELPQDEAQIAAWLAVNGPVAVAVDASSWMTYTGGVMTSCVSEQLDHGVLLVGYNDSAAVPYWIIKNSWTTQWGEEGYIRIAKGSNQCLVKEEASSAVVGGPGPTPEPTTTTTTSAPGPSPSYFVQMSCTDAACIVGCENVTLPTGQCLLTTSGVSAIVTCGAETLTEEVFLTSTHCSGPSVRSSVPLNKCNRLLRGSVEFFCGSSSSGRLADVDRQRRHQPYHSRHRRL
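Detergent-containing run (0.01% Triton X-100) in acetate buffer pH 5.5 with 5 mM DTT: enzyme at 1.5 nM final, 15 min compound preincubation at room temperature, then 2 uM Z-FR-AMC substrate. Activity taken as 60 s fluorescence increase at 360/450 nm.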
NS1 function inh – influenza NS1 inhibition. hit rate 0.4% among 270,000. Potency, µM (highest dose often 46.1 µM), without a hit: at the highest dose activity, positive = more growth. S. cerevisiae slowed by influenza A NS1, growth recovery by OD600; active means well fitted rising curve with a large enough effect; inconclusive means small, poorly fitted or top-dose-only effect; inactive means no such curve, though single readings can be large or run the other way; note: nearly all actives have a fitted effect of over 50% in size
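OD600 was taken as the measure of yeast growth restored by compound in an NS1-expressing S. cerevisiae strain. Cells had been washed out of glucose medium and diluted 1:100 into galactose -URA medium, pH 6.0.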
Lassa entry inh – Lassa virus entry inhibition. AID 540256. hit rate 1.2% among 300,000. Potency, µM (highest dose often 37.9 µM), for the others: at the highest dose activity change, negative = inhibition, usual class: inhibitors. Lassa virus pseudotype entry inhibition, cell reporter; control for the full effect not named in the record; active means well fitted inhibition curve with a large enough effect; inconclusive means small, poorly fitted or top-dose-only effect, or effect the other way; inactive means flat fitted curve, though single readings scatter; tested in HEK293 cells; note: % is set by controls: 0 for no effect and ±100 for the full control effect; nearly all actives have a fitted effect of over 50% in size; luciferase read-out
Cruzain noTriton – cruzain (T. cruzi) inhibition without detergent. P25779. purified cruzain, Z-FR-AMC fluorescence, no detergent. Potency, µM, without a hit: max response, negative = inhibition, actives largely listed as inhibitors. hit rate 2.3% among 200,000. AID 1476;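 note: plate controls were enzyme without inhibitor for no effect and buffer without enzyme for full effect; nearly all actives have a fitted effect of over 40% in size; top concentration of the series not given in the record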
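Purified cruzain at 1.5 nM, pre-incubated 15 min with compound at room temperature in 100 mM sodium acetate pH 5.5, 5 mM DTT, 0.00005% Triton X-100. Reaction started with 2 uM Z-FR-AMC; AMC fluorescence increase over 60 s gives rate.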
The depositor's hits bear a star; ? = inconclusive; nt = no result given; & = joins results of further samples; [ ] = dose if it differs, or a comment. Unless noted, calls come from the whole dose curve; as a rule, active = well fitted curve in the direction sought with a large enough effect; inconclusive = small, poorly fitted or top-dose-only effect, or another doubt; inactive = no such curve, though single readings can be large; an effect the other way counts as inactive or inconclusive. Potency is the fitted concentration of half-maximal effect.

SMILES	StopGo reporter	RE007 growth inh	Marburg entry inh	SARS PLP yeast	Cruzain Triton	NS1 function inh	Lassa entry inh	Cruzain noTriton
Cc1ccc(C)c(N2CCN(C(=O)c3cc4cc5ccc(C)cc5nc4o3)CC2)c1	-6%	nt	20%[46.1 µM]	nt	-1.3%	nt	0%[46.1 µM]	9%
COc1ccc(S(=O)(=O)N2CCN(Cc3cc4c(cc3Br)OCCO4)CC2)cc1	-20%	-4%	-4%	nt	nt	nt	?	nt
CCOC(=O)c1ccccc1NC(=O)CSc1nncn1C	-3%	-4%	19%[46.1 µM]	0%	nt	0%	15%	nt
CC(=O)C1=C(O)C(=O)N(c2ccccn2)C1c1ccc(C)cc1 (configuration not stated)	16%	0%	?	-1%	nt	12%	5%	nt
Cc1cc(C)cc(NC(=O)CN(C)S(=O)(=O)c2ccc3c(c2)CCC(=O)N3)c1	-4%	nt	-1%[46.1 µM]	nt	0.6%	nt	10%[46.1 µM]	8%
O=S(=O)(c1ccccc1)n1ccc2cccnc21	-4%	-13%	-8%[46.1 µM]	0%	1.7%	-8%	-4%	8%
COc1ccccc1-n1c(=O)[nH]c2c(C(N)=O)nc(-c3cccnc3)nc21	?	-1%	nt	-1%	nt	6%	nt	nt
COC(=O)c1ccccc1NC(=O)c1cc2cc(C)ccc2n1C	0%	nt	-1%[46.1 µM]	nt	1.8%	nt	?	15%
Cc1ccc(C(=O)c2coc3ccc(O)c(CN4CCN(C)CC4)c23)cc1	-20%	-13%	23µM*	0%	0.9%	-2%	-17%	3%
COc1ccc(CCNC(=O)CCc2c(C)c3ccc(O)c(C)c3oc2=O)cc1	-3%	nt	-5%[46.1 µM]	nt	-16%	nt	-7%[46.1 µM]	?
O=C(OC1CCCCC1=O)c1cccc(S(=O)(=O)NCc2ccccc2)c1 (configuration not stated)	-9%	1%	?	2%	-3.5%	-1%	?	-3%
O=C1CC(c2ccccc2)CC(O)=C1C=NC1CCCCCC1 (configuration not stated)	nt	-15%	-4%	-7%	-4.1%	-85%	?	-6%
O=C1[C@@H]2Cc3c([nH]c4ccccc34)C(c3ccc(Cl)cc3)N2C(=O)CN1CCO (some centres not stated)	9%	-9%	nt	-2%	nt	-4%	nt	nt
C/C(=C\c1cccc(Cl)c1Cl)C(=O)c1c(C)cc(C)[nH]c1=O	11%	0%	nt	0%	nt	0%	nt	nt
COCCCNC(=O)Cc1ccccc1OC	-26%	9%	4%	-4%	1.0%	3%	-10%	-1%
CC(=O)NC1(C(F)(F)F)C(=O)NC(C)=C1C#N (configuration not stated)	-4%	16%	10%	1%	1.2%	-1%	12%	-6%
CC(=O)Nc1cccc(NC(=O)CS(=O)(=O)c2cn(CC(=O)N3CCCC3)c3ccccc23)c1	-10%	-14%	23%	0%	nt	14%	2%	nt
CCC(=O)N1CCc2cc(CNS(=O)(=O)c3cc(Cl)ccc3OC)ccc21	54%[activator]	nt	nt	nt	0.4%	nt	-2%[46.1 µM]	14%
O=C(Nc1ccc(Cl)c(C(F)(F)F)c1)C(Cc1ccccc1)NS(=O)(=O)c1ccc(Br)s1 (configuration not stated)	-12%	nt	-3%[46.1 µM]	nt	-0.3%	nt	6%[46.1 µM]	4µM*
CN(CC(=O)Nc1cccc(F)c1)C(=O)c1cccc2ccccc12	2%	1%	-6%	-2%	nt	nt	1%	nt
CC1(C)C(C=C(Cl)Cl)C1C(=O)OCc1cccc(Oc2ccccc2)c1 (configuration not stated)	-25%	-9%	nt	nt	2.4%	nt	nt	-20%
c1cc2c(cc1NC1=NCCO1)CCCC2	-6%	?	?	nt	nt	nt	-14%	nt
CN(C)CCCn1c2c3ccccc3ccc2c2oc(=O)c3ccccc3c21	-8%	12%	?	nt	-5.5%	-33%	?	0%
Cc1ccc(C(=O)Nc2ccccc2C(=O)NCc2ccco2)cc1	13%	-6%	22%	-7%	nt	nt	-3%[46.1 µM]	nt
CCOC(=O)C(C(=O)NCc1ccc(F)cc1)c1ncc(C(F)(F)F)cc1Cl (configuration not stated)	-24%	11%	?	3%	3.7%	4%	-7%	-1%
The results go on:
SMILES	StopGo reporter	RE007 growth inh	Marburg entry inh	SARS PLP yeast	Cruzain Triton	NS1 function inh	Lassa entry inh	Cruzain noTriton
O=C(CSC1CC(=O)N(CCc2ccccc2)C1=O)Nc1cccc(Cl)c1 (configuration not stated)	1%	4%	-1%	-109%	-15%	-12%	5%	-3%
O=C(COc1ccccc1F)Nc1c(C(=O)Nc2cccc(F)c2)oc2ccccc12	18%	nt	14%[46.1 µM]	nt	-3.5%	nt	16%[46.1 µM]	13%
COc1ccc(NC(=O)c2cc3ccccn3n2)cc1	-17%	-13%	nt	-10%	-0.8%	-101%	nt	-10%
CCN(CC)S(=O)(=O)c1cc([N+](=O)[O-])ccc1NNC(=O)Nc1ccc(F)cc1	4%	3%[3.69 µM]	?	-3%	-6.8%	-1%	?	-4%
CCCS(=O)(=O)N1CCCC(C(=O)N2CCC(Cc3ccccc3)CC2)C1 (configuration not stated)	?	3%	9%	23%	-3.2%	-5%	?	?
Cc1ccc2c(=O)cc(C(=O)Nc3sc4c(c3C(=O)NCc3ccco3)CCCC4)oc2c1C	-12%	nt	-14%[46.1 µM]	nt	-2.2%	nt	-9%[46.1 µM]	-7%
COC(=O)c1ccc(C)cc1	3%	-3%	nt	8%	2.0%	nt	nt	-9%
CC1CCCCN1CCNC(=O)C1CCCN(c2ncnc3c2nc2n3CCCCC2)C1 (configuration not stated)	-3%	-14%	?	-2%	nt	5%	3%[46.1 µM]	nt
Nc1nonc1-c1nc2ccccc2[nH]1	6%	-8%	4%[46.1 µM]	-8%	-3.7%	-3%	2%	-5%
Cc1cc(C)n(CC(=O)n2c3c(c4ccccc42)CCCC3)n1	1%	-21%	17%&17%	-17%	2.5%	-10%[9.22 µM]	-28%	6%
O=C(/C=C/Nc1ccc([N+](=O)[O-])cc1Br)c1cccc2ccccc12	26%	3%	?	4%	-8.2%	6%	?	-91%
CC1(C)CC(=O)C2=C(C1)NC(SCC(=O)Nc1ccccc1)=C(C#N)C21CCCCC1	28µM*	-11%	?	-7%	-0.9%	-87%	0%	7%
O=S(=O)(NCCC1=CCCCC1)c1cccc2nsnc12	51%[activator]	5%	-16%	5%	-0.6%	-57%	3%	0%
Cc1ccc(-c2csc3nc(C)n(-n4cccc4)c(=O)c23)o1	-12%	-6%	-17%	-1%	-1.3%	?	8%	-13%
CCc1ccc(-c2cc(C(=O)O)c3ccccc3n2)s1	2%	-22%	nt	-3%	nt	1%	nt	nt
O=C(O)c1ccc(S(=O)(=O)NCc2ccc3c(c2)OCO3)cc1	-2%	16%	nt	1%	nt	4%	nt	nt
Cc1ccc2[nH]c(=O)c(-c3noc(C(C)C)n3)cc2c1	-3%	-4%	nt	?	-3.2%	-15%	nt	0%
Cc1c(Oc2ccc(C(F)(F)F)cc2[N+](=O)[O-])ccc2c3c(c(=O)oc12)CCC3	-16%	22%	0%	?	-7.3%	2%	3%	10%
CCOc1ccc(-c2nonc2NC(=O)COc2ccc(C)c(C)c2)cc1OCC	-6%	nt	6%[46.1 µM]	nt	-0.2%	nt	3%[46.1 µM]	10%
O=C(NCc1ccc(Cl)s1)c1cc(COc2c(F)cccc2F)on1	14%	-16%	?	-1%	nt	-2%	-3%	nt
CCN(CC)S(=O)(=O)c1ccc2[nH]cc(C(=O)NCCC3=CCCCC3)c(=O)c2c1	14µM*	29%	11µM*	0%	-11%	-37%	1.3µM*	?
CSc1nc(NC(C)=O)nc(C)c1Cl	-5%	-6%	-2%&-2%	0%	1.7%	0%[9.22 µM]	-3%	-7%
COC(=O)CC1C(=O)NCCN1C(=O)CSc1nc2ccc([N+](=O)[O-])cc2s1 (configuration not stated)	-27%	14%	-21%[46.1 µM]	-3%	nt	nt	nt	nt
CC(C)C(NC(=O)c1ccccc1F)C(=O)NCC(c1ccco1)N1CCCCC1 (configuration not stated)	2%	-5%	?	10%	nt	nt	10%	nt
O=C(COC(=O)c1ccc(NS(=O)(=O)c2cccs2)cc1)Nc1nc2c(F)c(F)c(F)cc2s1	-11%	-6%	?	0%	nt	2%	-8%	nt
CC(C)C(=O)Nc1ccc(NC(=O)c2cccs2)cn1	49%[activator]	20%	13%[46.1 µM]	5%	4.9%	-5%	11%	-9%
N#CCc1ccc(C(=O)c2ccccc2)s1	6%	-13%	?	1%	-3.4%	1%	-12%	4%

Ordered by molar mass (falling): some entries from above.
SMILES	StopGo reporter	RE007 growth inh	Marburg entry inh	SARS PLP yeast	Cruzain Triton	NS1 function inh	Lassa entry inh	Cruzain noTriton
Cc1ccc2c(=O)cc(C(=O)Nc3sc4c(c3C(=O)NCc3ccco3)CCCC4)oc2c1C	-12%	nt	-14%[46.1 µM]	nt	-2.2%	nt	-9%[46.1 µM]	-7%
CCN(CC)S(=O)(=O)c1ccc2[nH]cc(C(=O)NCCC3=CCCCC3)c(=O)c2c1	14µM*	29%	11µM*	0%	-11%	-37%	1.3µM*	?
CCC(=O)N1CCc2cc(CNS(=O)(=O)c3cc(Cl)ccc3OC)ccc21	54%[activator]	nt	nt	nt	0.4%	nt	-2%[46.1 µM]	14%

Entries shown so far with a CF3 group:
SMILES	StopGo reporter	RE007 growth inh	Marburg entry inh	SARS PLP yeast	Cruzain Triton	NS1 function inh	Lassa entry inh	Cruzain noTriton
CC(=O)NC1(C(F)(F)F)C(=O)NC(C)=C1C#N (configuration not stated)	-4%	16%	10%	1%	1.2%	-1%	12%	-6%
O=C(Nc1ccc(Cl)c(C(F)(F)F)c1)C(Cc1ccccc1)NS(=O)(=O)c1ccc(Br)s1 (configuration not stated)	-12%	nt	-3%[46.1 µM]	nt	-0.3%	nt	6%[46.1 µM]	4µM*
CCOC(=O)C(C(=O)NCc1ccc(F)cc1)c1ncc(C(F)(F)F)cc1Cl (configuration not stated)	-24%	11%	?	3%	3.7%	4%	-7%	-1%
Cc1c(Oc2ccc(C(F)(F)F)cc2[N+](=O)[O-])ccc2c3c(c(=O)oc12)CCC3	-16%	22%	0%	?	-7.3%	2%	3%	10%

Random draw from the library. About 4.5% of those tested had a hit in this group.
